# ClpP mod: qHTS Assay for Activators of ClpP; ATP-dependent Clp protease proteolytic subunit (Bacillus subtilis (strain 168)), P80244; purified B. subtilis ClpP, FRET peptide cleavage, 20 min; Potency, µM (titrated, usually from 57.5 µM), inactives show top-dose activity change, negative = active; 340,000 tested, 1.9% active; active = well fitted falling curve with a large enough effect; inconclusive = small, poorly fitted or top-dose-only effect; inactive = no such curve, though single readings can be large or run the other way; further: potency means the concentration at half of the fitted maximal effect; the source files actives as falling curves though it sought activators and does not explain the sign; nearly all actives have a fitted effect of over 65% in size; many hits overshoot -100%
# Target sequence (P80244 whole entry, looked up): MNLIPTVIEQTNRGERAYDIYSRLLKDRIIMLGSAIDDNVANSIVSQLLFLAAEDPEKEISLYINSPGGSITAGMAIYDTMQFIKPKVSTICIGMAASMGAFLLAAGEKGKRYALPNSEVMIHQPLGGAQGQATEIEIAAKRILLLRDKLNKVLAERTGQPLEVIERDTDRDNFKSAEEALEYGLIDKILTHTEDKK
#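 FRET quenching reversal measured ClpP activation: 10 microg/mL B. subtilis ClpP at pH 8 with the FRET-FV decapeptide, read at 430 nm after 320 nm excitation. The 20-min minus 0-min signal was scaled between DMSO/no-enzyme wells and ADEP (5.8 microM final).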
# gsp antag: antagonizes gsp, the McCune-Albright syndrome mutation; Potency, µM (top dose mostly 76.9 µM), for the others: at the top dose activity change, negative = inhibition, usual class: inhibitors; 340,000 tested, 0.4% active; gsp-mutant cells, cAMP HTRF, 30 min; control for the full effect not named in the record; active = falling curve of any shape with a large fitted effect; inconclusive = falling curve, mostly with a smaller effect; inactive = flat or rising curve; cell line not stated here;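 further: intracellular cAMP measured with PDE inhibitor Ro 20-1724 present during compound exposure; potency means the concentration at half of the fitted maximal effect; on the % scale 0 is the no-effect control and ±100 the full control effect; nearly all actives have a fitted effect of over 65% in size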
#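 HTRF cAMP measurement after 30 min RT detection following 30 min, 37C compound treatment alongside […] (added as 300 uM solution) in G418-selected cells seeded at 2000/well and grown 16–24 h.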
# gsp ag: activates gsp, the McCune-Albright syndrome mutation | gsp mutant cells, cAMP HTRF, 30 min; control for the full effect not named in the record | 340,000 tested, 0.13% active | AID 624287 | Potency, µM (series often up to 76.9 µM), inactives show at the top dose activation (cAMP increase), hits mostly activators; active = well fitted activation curve with a large enough effect; inconclusive = small, poorly fitted or top-dose-only effect, or another doubt; inactive = no such curve, though single readings can be large or run the other way; cell line not stated here;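 further: phosphodiesterase inhibitor Ro 20-1724 added with compounds to block cAMP breakdown; potency means the concentration at half of the fitted maximal effect; nearly all actives have a fitted effect of over 60% in size; about a fifth of the inactives were tested at one dose only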
#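 Cells stably selected in G418 were plated at 2000/well, grown 16-24 hr, then given compounds in DMSO with the PDE inhibitor […] (300 uM solution added) for 30 min at 37C; cAMP was read by HTRF.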
# TRPML1 ag: agonists of human TRPML1 channel. Q9GZU1. TRPML1-expressing cells, Ca2+ dye fluorescence, FDSS; host cell line not named in the record; reference of the full effect not given here. activation, % (concentration not given with the values). 410,000 tested, 0.12% active. AID 624414; in the data active = activation above about 50%; inconclusive = about 30% to 50%; inactive = below about 30%; further: 0% is about no effect; the text of the record puts the active cut at 80%
# Target sequence (Q9GZU1 whole entry, looked up): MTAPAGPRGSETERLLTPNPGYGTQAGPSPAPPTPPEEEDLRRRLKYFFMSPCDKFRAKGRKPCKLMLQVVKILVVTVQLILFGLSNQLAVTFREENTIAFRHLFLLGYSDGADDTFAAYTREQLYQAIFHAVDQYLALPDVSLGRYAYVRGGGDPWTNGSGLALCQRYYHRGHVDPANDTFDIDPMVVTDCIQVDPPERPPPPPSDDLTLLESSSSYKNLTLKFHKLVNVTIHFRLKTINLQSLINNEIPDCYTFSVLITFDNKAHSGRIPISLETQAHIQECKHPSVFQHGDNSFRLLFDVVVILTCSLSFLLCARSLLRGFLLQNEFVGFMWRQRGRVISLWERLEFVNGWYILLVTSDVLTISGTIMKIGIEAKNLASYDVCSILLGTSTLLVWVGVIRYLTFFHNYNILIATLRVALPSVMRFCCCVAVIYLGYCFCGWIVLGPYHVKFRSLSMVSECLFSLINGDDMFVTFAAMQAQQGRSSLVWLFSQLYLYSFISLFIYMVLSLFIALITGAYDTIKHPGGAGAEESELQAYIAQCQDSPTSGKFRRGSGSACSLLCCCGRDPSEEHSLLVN
#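 Kinetic FDSS Ca2+ read in Tet-induced TRPML1-DL cells (ABD Ca8 dye plus quencher, 45-90 min RT loading): baseline, then compound, then 110 s agonist window; EC80 agonist 54-4 at 4uM final added afterwards for a 110 s antagonist window.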
# TRPML1 inh: inhibitors of human TRPML1 channel | Q9GZU1 | TRPML1-inducible cells, Ca2+ dye fluorescence, FDSS; hits give low values; inhibition of EC80 agonist-evoked calcium signal | activity change, negative = inhibition, % (test concentration not listed) | 390,000 tested, 0.02% active; in the data active means activity change below about -50%; inconclusive means about -30% to -50%; inactive means above about -30%;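 further: stimulus is agonist 54-4 at its EC80 concentration; on the % scale 0 is the no-effect control and ±100 the full control effect; compound concentration not given in the record; the text of the record puts the active cut at -80%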
#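 TRPML1-DL cells, Tet-induced overnight (~16 h, 37 °C) at 1,500 cells/well, were loaded with Ca8 no-wash dye plus quencher for 45-90 min at room temperature. Compounds were pinned during FDSS kinetic reading; agonist 54-4 at EC80 (4 uM final) then added.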
# Menin MLL FP FL: displaces fluorescein MLL peptide from human menin; AID 1766; Fluorescence polarization, fluorescein-MLL peptide displacement from menin; FP activity change, % at 61.4 µM; 290,000 tested, under 10 active; inconclusive = falling polarisation curve, or a change in total fluorescence; inactive = total fluorescence flat and polarisation flat or rising; no compound was filed as active; the % refers to the polarisation; negative = inhibition;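 further: % of control where 0% means no effect; inhibitors lower the polarisation; unlabelled MLL peptide was the positive control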
# * hit, by the source's call; ? = inconclusive; · = not tested or not shown; & = joins results of further samples; [ ] = dose if it differs, or a comment.
SMILES,ClpP mod,gsp antag,gsp ag,TRPML1 ag,TRPML1 inh,Menin MLL FP FL
CCCCN(C(=O)NC(=O)Nc1c(C)cc(C)cc1C)S(C)(=O)=O,1.4%,7.0%,-73.5%[inhibitor],-0.5,-2.4,-0.8
Cn1c(=O)oc2cc(S(=O)(=O)N3CCCC(C(=O)N4CCc5ccccc5C4)C3)ccc21 (stereo unspecified),-0.1%,?,-15.9%,0.7,20.8,-0.1
N/C(=N\N=C\c1ccco1)SC1CC(=O)N(c2ccccc2)C1=O (stereo unspecified),-0.3%,-0.6%,-3.9%[15.4 µM],0.4,1.5,-2.1
COc1cc(O)c2c(c1)OC(C)(C)CC2=O,-0.3%,15.9%,26.5%,-1.3,-14.0,-0.7
Cn1c(N)c(C(=O)COC(=O)CSc2ccc3ccccc3c2)c(=O)n(C)c1=O,-2.6%,3.0%,?,2.7,20.1,·
CN(C)CCNC(=O)c1cc2c(=O)n(C)c3ccccc3c2n1C,4.4%,0.1%,-41.3%[inhibitor],-0.1,-2.5,1.0
Nc1ccc2c(c1)Cc1c(F)cccc1-2,·,5.1%,?,1.3,58.8,·
O=C(CSCc1ccc([N+](=O)[O-])cc1)NC1CC1,1.7%,3.7%,-3.7%,-0.6,17.6,5.2
CCc1ccccc1NC(=O)c1nc(-c2ccncc2)no1,-1.3%,·,·,0.0,28.9,·
COc1ccccc1N1CCN(CC(O)COc2ccc3c(c2)CCC3)CC1 (stereo unspecified),-5.7%,-0.4%,20.3%,0.9,-5.8,-0.1
Cc1cc(C)nc(Nc2n[nH]c(COc3ccc(Cl)cc3)n2)n1,1.3%,10.9%,-6.1%,4.0,3.9,1.1
Cc1ccc(C)c(C(=O)COC(=O)CNS(=O)(=O)c2ccccc2)c1,·,?,-24.6%,1.4,-0.6,-4.0
COc1cccc(C2CC(=O)N(c3ccc(F)cc3)C3=C2C(=O)OC3)c1OC (stereo unspecified),2.6%,·,·,0.5,-20.0,·
CC(=O)C1=C(O)C(=O)N(c2ccc(C)cc2)C1c1ccc([N+](=O)[O-])cc1 (stereo unspecified),-0.7%,-22.4%,23.8%,-0.1,-7.4,0.5
COn1c(-c2ccccc2)c(C=O)c2ccccc21,-2.2%,-12.2%,-0.6%[15.4 µM],-0.1,14.8,0.1
C=CCn1c(C)cc(C(=O)CSc2nc3ccccc3o2)c1C,0.1%,?,15.6%,-0.5,4.9,1.3
Cc1ccc(F)c(C2=CC(=O)C[C@H](c3ccc(F)cc3)C2)c1,-2.2%,-3.6%,?,4.4,54.3,·
CC(=O)Nc1cc(NC(C)=O)cc(C(=O)OCC(=O)N2CC(C)OC(C)C2)c1 (stereo unspecified),0.7%,4.3%,-11.6%,0.3,-4.4,-1.4
COc1ccc(Cl)cc1NC(=O)Nc1ccc(Br)cn1,0.3%,-4.0%,10.4%,0.1,-0.2,0.5
Cc1cc(C)cc(NC(=O)C2CCCN2S(=O)(=O)c2ccc3c(c2)C(C)(C)C(=O)N3C)c1 (stereo unspecified),-0.5%&-2.3%,3.9%,-49.8%[inhibitor],1.4&0.5,18.9&-20.8,-4.2
Cc1ccc(S(=O)(=O)N(C)Cc2ccc(-c3nnc4n3CCC4)cc2)cc1,1.3%,?,?,0.4,9.2,4.6
COc1ccc(C(=O)NNC(=O)c2cc3cccc(OC)c3oc2=O)cc1,·,-10.1%,3.2%[15.4 µM],0.5,-8.9,2.0
Oc1ccccc1C=NN=Cc1ccccc1Cl,-2.6%,-0.7%,23.0%,-0.2,-13.5,·
O=C(Nc1cc(C(F)(F)F)ccc1Cl)C(Sc1ccccn1)c1ccccc1 (stereo unspecified),0.7%,-9.9%,?,-0.4,-1.9,11.6
CCOc1ccc(Cc2onc3c2C(=O)CC(C)(C)C3)cc1OCC,·,2.4%,9.8%[15.4 µM],1.6,6.9,-0.7
# Additional entries
SMILES,ClpP mod,gsp antag,gsp ag,TRPML1 ag,TRPML1 inh,Menin MLL FP FL
CC(C)(O)CNC(=O)Nc1ccc(Cl)c(Cl)c1,-0.5%,-2.4%,-18.6%,0.1,16.1,1.4
CC(=O)Nc1ccc(OS(=O)(=O)c2c(C)cc(C)cc2C)cc1,1.0%,-7.6%,-44.4%[inhibitor],1.1,12.1,-1.5
Cc1ccc(CN2CC(C(=O)Nc3ccc4c(C)cc(=O)oc4c3)CC2=O)cc1 (stereo unspecified),-6.9%,-3.6%,0.1%,4.6,-18.1,-0.6
COc1ccc(NC(=O)CN2C(=O)C(c3ccc(C(C)(C)C)cc3)=NC2(C)C)cc1Cl,-0.2%,·,·,0.1,-1.1,·
CCc1nc2c(cnn2-c2ccc(C)cc2)c(=O)n1Cc1ccccc1,?,·,·,2.2,24.4,·
COc1ccc(S(=O)(=O)NC(CC(=O)NCc2ccco2)c2ccco2)cc1 (stereo unspecified),?,-10.8%,16.8%,0.2,-7.5,4.9
COCCN(CCOC)S(=O)(=O)c1ccc(C(=O)Nc2nnc(C3CC3)o2)cc1,-1.5%,-2.8%,2.7%,-0.7,-7.2,1.5
COc1ccc(OC)c(S(=O)(=O)NCC(=O)NC2CCCCCC2)c1,-0.8%,8.0%,-1.9%,-0.4,3.1,·
COc1ccc(OC)c(NC(=O)[C@@]2(CC(=O)O)CC(/C=C/c3ccccc3)=NO2)c1,0.2%,7.3%,-3.3%,-0.5,8.1,-5.2
Cc1ccc(S(=O)(=O)NCC2CCC(C(=O)NCc3ccco3)CC2)cc1 (stereo unspecified),?,-10.2%,-33.7%,-0.3,-5.3,4.1
O=C(Cn1nnc(-c2cccs2)n1)N1CCc2ccccc2C1,-0.9%,5.1%,-17.1%,-0.8,11.8,0.3
Cc1ccc(S(=O)(=O)NC(=O)Nc2ccc(N(C)C)cc2)cc1,0.2%,?,-140.4%[inhibitor],-0.7,-5.8,·
Cc1ccccc1C(=O)c1cccn1CC(=O)NCCC1=CCCCC1,·,·,0.0%[15.4 µM],0.9,21.6,3.9
CCOC(=O)N1CCN(CC(=O)Nc2ccc(F)cc2)CC1,·,-8.6%,?,0.8,-13.2,1.9
C=C(C)COc1ccc(-c2nc(N)ncc2Oc2ccccc2OCC)c(O)c1,0.2%,-4.5%,?,1.5,30.5,6.7
COc1cc(Cc2nccc3cc(OC)c(OC)cc23)c(NC(C)=O)cc1OC,·,4.2%,22.3%,0.3,-12.2,0.7
O=C1c2ccccc2C(Nc2ccc(S(=O)(=O)N3CCCCCC3)cc2)N1Cc1ccco1 (stereo unspecified),-0.7%,-7.5%,-2.9%,0.5,-4.6,1.9
COc1ccc(N2C(=O)CSC23C(=O)N(C)c2ccccc23)cc1Cl (stereo unspecified),-3.1%,·,·,1.9,3.5,·
CC1(C)Cc2c(c(=S)nc(-c3ccccc3)n2CCN2CCOCC2)CO1,-0.1%,-2.5%,19.8%,-0.3,-2.0,0.8
CN(CCC#N)C(=O)COC(=O)c1cc(Cl)cc(Cl)c1N,·,2.2%,-6.1%,1.3,18.9,-5.5
Cc1ccsc1C(=O)Nc1ccc(S(=O)(=O)N2CCOCC2)cc1,1.1%,3.5%,-9.4%,0.0,-7.1,·
O=c1c2ccccc2n(Cc2ccccc2F)c(=O)n1-c1cccc(F)c1,?,·,·,-0.4,-16.0,·
C=CCNCc1cc(=O)n2c(-c3ccccc3)csc2n1,·,5.0%,-8.2%,0.3,2.3,4.2
O=P(c1ccccc1)(c1ccccc1)c1ccc(O)cc1,·,16.4%,-37.6%,-0.8,-1.7,-8.4
COc1ccc(-c2cn3cc(Br)cnc3n2)cc1,·,6.5%,26.4%,-0.3,-4.7,-2.8
# Next section
SMILES,ClpP mod,gsp antag,gsp ag,TRPML1 ag,TRPML1 inh,Menin MLL FP FL
COc1cccc(NC(=O)C2COc3ccccc3O2)c1 (stereo unspecified),-3.3%,-8.4%,-48.1%[inhibitor],·,·,-4.4
CC(C)(C)c1ccc(C(=O)NNc2cc(Cl)cc(Cl)c2)cc1,3.1%,3.9%,-46.2%[inhibitor],-0.1,4.2,2.4
O=C1CNC(=O)/C(=C\c2ccccc2)N1,-0.1%,6.7%,-12.3%,1.4,?,1.4
COc1ccc(-c2c(C)nn3c(N4CCCCCC4)cc(C)nc23)cc1OC,-6.6%,?,?,1.6,10.7,1.1
CSc1ccc(/C=N/NC(=O)c2cc(O)cc(O)c2)cc1,-10.7%,1.2%,-46.9%[inhibitor],1.4,2.1,-0.3
CC(C)(C)C(=O)Nc1ccccc1C(=O)OCc1cc(=O)n2ccsc2n1,-6.2%,·,·,-0.5,3.4,·
Oc1c(C(c2ccccc2)N2CCN(Cc3ccccc3)CC2)sc2nc(-c3ccco3)nn12 (stereo unspecified),-0.1%,·,·,1.7,23.7,·
COCCCn1c(=N)c(C(=O)NCC2CCCO2)cc2c(=O)n3cccc(C)c3nc21 (stereo unspecified),11.0%,14.8%,?,-0.1,-11.2,-3.1
CSc1nsc(SC)c1NC(=O)N1CCCCC1,-1.1%,1.2%,-79.8%[inhibitor],-0.6,-15.4,0.2
COc1ccc2c(CC(=O)Nc3nc(C)cs3)coc2c1,-0.4%,-7.3%,-0.3%[15.4 µM],1.5,12.5,1.5
COc1ccc(NC(=O)CN2CCc3ccccc3C2)cc1S(=O)(=O)N1CCOCC1,0.9%,-6.2%,-1.3%[15.4 µM],-0.4,33.5,6.3
CCCCCC(=O)Nc1ccc2oc(-c3cccnc3)nc2c1,15.8µM*,-3.9%,0.2%,-0.2,-12.0,1.7
Cc1cccc(C(=O)NCC(=O)N2CCN(S(=O)(=O)c3ccc4c(c3)OCCO4)CC2)c1,-1.0%,-3.0%,15.0%,-0.1,-12.9,·
C=CCn1c(N)c(C(=O)OC(C)CC)c2nc3ccccc3nc21 (stereo unspecified),?,1.1%,-16.2%,2.6,-0.2,0.0
COc1ccccc1NC(=O)CN(Cc1ccco1)C(=O)c1cc(Cl)c(OC)c(OC)c1,0.6%,·,8.0%,1.3,5.7,·
O=C(O)C1CC=CCC1C(=O)Nc1cccnc1 (stereo unspecified),·,6.1%,5.0%[15.4 µM],0.3,-18.9,-2.7
COc1cc(OC)cc(C(=O)NC(=S)N2CCCCCC2)c1,·,-6.0%,-0.2%[15.4 µM],-0.2,58.0,1.5
CCOc1ccc(NC(=O)c2cc3c(=O)n(Cc4cccs4)ccc3nc2C)cc1,55.7%,·,·,1.1,-10.3,·
O=C(COC(=O)C12CC3CC(CC(C3)C1)C2)NNC(=O)c1ccccc1,1.2%,0.1%,-0.4%,-0.4,10.7,·
O=C(CCC1CCCN(C2C3CC4CC(C3)CC2C4)C1)NCc1ccc(F)c(F)c1 (stereo unspecified),·,8.3%,7.2%,-0.8,7.7,0.8
CC(C)(C)OC(=O)N1CCC(C(=O)Nc2ccc(C(=O)NCCc3ccccc3)cc2)CC1,-0.6%,-1.8%,·,1.3,3.6,·

# Screening results as filed in PubChem.
